Screening data as filed in PubChem BioAssay.
PINK1 modulator = PINK1 expression modulation. 410,000 compounds, 0.2% hits. Potency, µM (top dose mostly 76.6 µM), for the others: at the highest dose activation (PINK1 increase), usual class: activators. PINK1 immunofluorescence, high-content cytometry, 24 h; active = well fitted activation curve with a large enough effect; inconclusive = small, poorly fitted or top-dose-only effect; inactive = flat fitted curve, though single readings scatter; cell line not stated here;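 further: potency means the concentration at half of the fitted maximal effect; % of control where 0% means no effect; nearly all actives have a fitted effect of over 65% in size; a mitochondrial uncoupler was the plate control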
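Cells are seeded, rested 12 hours, then given compound at five concentrations or DMSO for 24 hours. After fixation, blocking and antibody staining, PINK1 amount and mitochondrial localization are scored; CCCP serves as control.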
TRPML1 inh = blocks the human TRPML1 channel. Q9GZU1. TRPML1-inducible cells, Ca2+ dye fluorescence, FDSS; active compounds read low; inhibition of EC80 agonist-evoked calcium signal. activity change, negative = inhibition, % (concentration not given with the values). 390,000 compounds, 0.02% hits. AID 624415; in the data active means activity change below about -50%; inconclusive means about -30% to -50%; inactive means above about -30%;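 further: stimulus is agonist 54-4 at its EC80 concentration; on the % scale 0 is the no-effect control and ±100 the full control effect; the text of the record puts the active cut at -80%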
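TRPML1-DL cells, Tet-induced overnight (~16 h, 37 °C) at 1,500 cells/well, were loaded with Ca8 no-wash dye plus quencher for 45-90 min at room temperature. Compounds were pinned during FDSS kinetic reading; agonist 54-4 at EC80 (4 uM final) then added.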
TRPV1 potentiator = human TRPV1 potentiation; AID 540277; potentiation, % at 8.33 µM; 320,000 compounds, 0.02% hits; TRPV1-expressing cells, Fluo-8 calcium influx, capsaicin EC20 potentiation; host cell line not named in the record; control for the full effect not named in the record; active means potentiation above 80%; inconclusive means 30% to 80%; inactive means below 30%; further: 0% is about no effect
Target sequence (Q8NER1 whole entry, looked up): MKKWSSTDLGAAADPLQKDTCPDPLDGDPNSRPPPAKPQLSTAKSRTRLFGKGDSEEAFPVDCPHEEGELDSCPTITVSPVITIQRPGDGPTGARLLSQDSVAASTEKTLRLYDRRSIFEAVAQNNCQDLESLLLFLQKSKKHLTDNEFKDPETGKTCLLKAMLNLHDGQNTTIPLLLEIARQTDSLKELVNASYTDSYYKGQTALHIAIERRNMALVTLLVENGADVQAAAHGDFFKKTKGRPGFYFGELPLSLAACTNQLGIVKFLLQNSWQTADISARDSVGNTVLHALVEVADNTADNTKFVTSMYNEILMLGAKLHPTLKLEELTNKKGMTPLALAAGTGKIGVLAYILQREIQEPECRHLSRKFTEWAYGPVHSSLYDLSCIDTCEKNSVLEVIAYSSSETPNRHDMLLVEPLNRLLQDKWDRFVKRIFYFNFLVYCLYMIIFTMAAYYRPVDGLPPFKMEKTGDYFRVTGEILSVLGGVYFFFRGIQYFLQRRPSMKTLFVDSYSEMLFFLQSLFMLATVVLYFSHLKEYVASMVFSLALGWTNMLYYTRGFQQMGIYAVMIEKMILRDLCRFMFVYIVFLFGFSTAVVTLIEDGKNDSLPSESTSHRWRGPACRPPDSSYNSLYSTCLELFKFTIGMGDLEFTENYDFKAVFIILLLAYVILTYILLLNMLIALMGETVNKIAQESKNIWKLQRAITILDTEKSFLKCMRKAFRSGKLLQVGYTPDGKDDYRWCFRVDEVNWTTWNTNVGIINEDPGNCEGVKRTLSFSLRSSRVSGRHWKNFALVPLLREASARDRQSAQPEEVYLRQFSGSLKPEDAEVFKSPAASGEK
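TRPV1-expressing cells were cultured overnight at 35.5C and loaded with Fluo-8 calcium dye for 40 to 90 min at room temperature. After a 10 s baseline, compound was added and calcium influx was read kinetically for 3 min (ex 480/em 520 nm).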
Sfp PPTase inh = Sfp phosphopantetheinyl transferase inhibition; Q9F4F7; Biochemical Sfp PPTase activity, qHTS; Potency, µM, for inactives: max response, negative = inhibition, actives largely listed as inhibitors; 310,000 compounds, 3.5% hits; AID 1490; active means well fitted inhibition curve with a large enough effect; inconclusive means small, poorly fitted or top-dose-only effect, or another doubt; inactive means no such curve, though single readings can be large or run the other way;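 further: the enzyme is Sfp with the accession as filed and its product quenches rhodamine fluorescence; potency means the concentration at half of the fitted maximal effect; 0% = enzyme reaction without inhibitor and -100% = no enzyme wells; top concentration of the series not given in the record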
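Sfp 15 nM + cpd, 15 min RT; start w/ rhodamine-CoA 5 uM, BHQ-2-YbbR 12.5 uM (final); 50 mM Hepes pH 7.6, 10 mM MgCl2, 0.01% NP-40, 0.01% BSA; read 525/598 nm at 0 and 30 min.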
Menin-MLL FL inh = inhibitors of human menin-MLL interaction, wild-type MLL peptide; Fluorescence polarization, fluorescein-MLL peptide displacement from menin; FP activity change, % at 61.4 µM; 290,000 tested, under 10 active; AID 1766; inconclusive = falling polarisation curve, or a change in total fluorescence; inactive = total fluorescence flat and polarisation flat or rising; no compound was filed as active; the % refers to the polarisation; negative = inhibition;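 further: % of control where 0% means no effect; inhibitors lower the polarisation; unlabelled MLL peptide was the positive control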
TRPML1 agonist = activates the human TRPML1 channel; activation, % (no concentration beside the values); Q9GZU1; 410,000 compounds, 0.12% hits; TRPML1-expressing cells, Ca2+ dye fluorescence, FDSS; host cell line not named in the record; reference of the full effect not given here; in the data active = activation above about 50%; inconclusive = about 30% to 50%; inactive = below about 30%; further: 0% is about no effect; the text of the record puts the active cut at 80%
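Kinetic FDSS Ca2+ read in Tet-induced TRPML1-DL cells (ABD Ca8 dye plus quencher, 45-90 min RT loading): baseline, then compound, then 110 s agonist window; EC80 agonist 54-4 at 4uM final added afterwards for a 110 s antagonist window.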
ClpP mod = qHTS Assay for Activators of ClpP | purified B. subtilis ClpP, FRET peptide cleavage, 20 min | Potency, µM (highest dose often 57.5 µM), for the others: top-dose activity change, negative = active | 340,000 compounds, 1.9% hits | AID 651965, 2013; active = well fitted falling curve with a large enough effect; inconclusive = small, poorly fitted or top-dose-only effect; inactive = no such curve, though single readings can be large or run the other way; further: potency means the concentration at half of the fitted maximal effect; the source files actives as falling curves though it sought activators and does not explain the sign; nearly all actives have a fitted effect of over 65% in size; many hits overshoot -100%
Target sequence (P80244 whole entry, looked up): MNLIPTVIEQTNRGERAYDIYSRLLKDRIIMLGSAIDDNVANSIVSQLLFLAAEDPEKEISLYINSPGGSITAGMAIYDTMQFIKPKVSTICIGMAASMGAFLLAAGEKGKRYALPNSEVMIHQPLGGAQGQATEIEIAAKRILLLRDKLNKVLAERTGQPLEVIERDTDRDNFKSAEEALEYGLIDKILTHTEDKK
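ClpP 10 microg/mL final, pH 8 Tris/KCl buffer with BSA, glycerol, Tween-20; compound pinned in; FRET-FV substrate; RT 20 min; Ex320/Em430; ΔFRET vs ADEP 5.8 microM, DMSO, no enzyme.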
Numbers without * were called inactive; [ ] = remark or other dose. Compounds as they come. About 4.4% of those tested had a hit in this group.

CCOc1ccccc1N1CC(C(=O)Nc2nccs2)CC1=O (stereo not drawn) was read as PINK1 modulator 0.1%, TRPML1 inh -5, TRPV1 potentiator 1, Sfp PPTase inh 8%, Menin-MLL FL inh 3.0, TRPML1 agonist -0.1 and ClpP mod 0.9%.
For CC1(C)Oc2ccc3ccc(=O)oc3c2[C@H](O)[C@H]1O the results were PINK1 modulator 1.1%, TRPML1 inh -22, TRPV1 potentiator -2, TRPML1 agonist -0.5 and ClpP mod 4.0%.
Cc1ccc(C)c(-n2c(SCC(=O)NCC3CCCO3)nnc2-c2ccoc2C)c1 (stereo not drawn) was read as PINK1 modulator 0.9%, TRPML1 inh -12, TRPV1 potentiator 0, Sfp PPTase inh inconclusive, Menin-MLL FL inh -0.5, TRPML1 agonist -0.4 and ClpP mod -1.6%.
Cc1cc(Cl)ccc1NC(=O)CCn1nc(C)c2c(C)n(-c3ccccc3)nc2c1=O was read as PINK1 modulator -1.5%, TRPML1 inh 2, TRPML1 agonist -1.0 and ClpP mod -5.5%.
For FC(F)Sc1nnc(-c2cccs2)n1-c1ccccc1 the results were PINK1 modulator 2.6%[38.3 µM], TRPML1 inh 0, TRPV1 potentiator 1, Sfp PPTase inh 18%, Menin-MLL FL inh -0.2, TRPML1 agonist 2.4 and ClpP mod -4.1%.
Cc1ccccc1C(=O)Nc1cc2c(cc1N1CCCCC1)n(C)c(=O)n2C was read as PINK1 modulator 0.1%, TRPML1 inh -12, TRPML1 agonist -0.6 and ClpP mod -2.1%.
Screening Cc1cc(NC(=O)CSc2nc3ccccc3c(=O)n2C(C)c2ccccc2)no1 (stereo not drawn) returned PINK1 modulator 3.5%, TRPML1 inh -6, TRPV1 potentiator -1, Sfp PPTase inh 32%[activator], Menin-MLL FL inh 1.6, TRPML1 agonist 0.1 and ClpP mod -1.2%.
For CCCCNC(=O)C1(C)CCN1C(=O)Cc1ccc(OC)cc1 (stereo not drawn) the results were PINK1 modulator 3.0%, TRPML1 agonist -0.1 and ClpP mod 2.6%.
Cn1c(=O)[nH]c(=O)c2c1nc(CN1CCN(c3cccc(Cl)c3)CC1)n2CCCc1ccccc1 was read as PINK1 modulator 4.2%, TRPML1 inh 18, TRPV1 potentiator -9, Sfp PPTase inh 14%, Menin-MLL FL inh 1.3, TRPML1 agonist 0.8 and ClpP mod -0.1%.
COc1cccc(N2CCN(C(=O)CC(C)(C)CC3=NS(=O)(=O)c4ccccc4N3)CC2)c1 was read as PINK1 modulator 0.3%, TRPML1 inh -18, TRPV1 potentiator 19, Sfp PPTase inh 5%, TRPML1 agonist -0.9 and ClpP mod 1.0%.
For COc1ccc(N2CCN(C(=O)c3sc4ncn(CC(=O)N5CCCCC5)c(=O)c4c3C)CC2)cc1 the results were PINK1 modulator -0.3%, TRPML1 inh -7, TRPV1 potentiator 6, Sfp PPTase inh 7%, Menin-MLL FL inh 2.6, TRPML1 agonist -0.5 and ClpP mod 1.8%.
Screening CC(=O)N(C(C)=O)c1ncnc2c1c(-c1ccc(Cl)cc1)nn2C(C)(C)C returned PINK1 modulator 9.9%, TRPML1 inh 7, TRPV1 potentiator -4, Sfp PPTase inh -10%, Menin-MLL FL inh -0.1, TRPML1 agonist -0.8 and ClpP mod 9.9%.
For Cc1ccc(S(=O)(=O)c2cnc(SC(C)C(=O)Nc3ccccc3)[nH]c2=O)cc1 (stereo not drawn) the results were PINK1 modulator -0.9%, TRPML1 inh -10, TRPML1 agonist 1.4 and ClpP mod -1.4%.
Screening Cn1c(Cc2ccccc2)nnc1SCC(=O)N1CCOCC1 returned PINK1 modulator -0.8%, TRPML1 inh -5, TRPV1 potentiator 1, Sfp PPTase inh -8%, Menin-MLL FL inh 5.6, TRPML1 agonist -1.0 and ClpP mod 0.9%.
Screening CCOC(=O)[C@]12CCCC=C1N(Cc1ccc(Cl)cc1Cl)C(=O)[C@H](CC(=O)NCc1ccccc1)C2 returned PINK1 modulator 4.2%, TRPML1 agonist -0.2 and ClpP mod 0.2%.
For COc1ccc(-c2nc(-c3cccc(C)c3)[nH]c(=O)c2C#N)cc1 the results were PINK1 modulator -0.3%, TRPML1 inh 1, TRPV1 potentiator 2, Sfp PPTase inh 15%, Menin-MLL FL inh 0.2, TRPML1 agonist -0.8 and ClpP mod 1.6%.
`O=[N+]([O-])c1cccc(Cl)c1NCCNS(=O)(=O)c1ccc(Cl)cc1` gave PINK1 modulator -0.8%, TRPML1 inh 14, TRPV1 potentiator -18, Sfp PPTase inh -1%, Menin-MLL FL inh -0.7, TRPML1 agonist 1.3 and ClpP mod 2.6%.
For O=C(O)Cc1sc(Nc2ccc(F)cc2)nc1-c1cccs1 the results were PINK1 modulator -0.3%, TRPML1 inh -1, TRPV1 potentiator -25, Sfp PPTase inh 22µM*, Menin-MLL FL inh inconclusive and TRPML1 agonist 1.2.
`CC(C)(C)c1cc(C(=O)N/N=C/c2ccc(-c3ccccc3[N+](=O)[O-])o2)n[nH]1` gave PINK1 modulator -1.6%, TRPML1 inh 8, TRPV1 potentiator 5, Sfp PPTase inh -7%, TRPML1 agonist -0.1 and ClpP mod 5.6%.
For CCn1cc(/C=C(\NC(=O)c2ccccc2F)C(=O)N2CCCC2)c2ccccc21 the results were PINK1 modulator 0.3%, TRPML1 inh -17, TRPV1 potentiator 17, Sfp PPTase inh 6%, Menin-MLL FL inh 1.2, TRPML1 agonist -0.1 and ClpP mod -0.3%.
Cc1c(NC(=O)c2cccc(-c3cc4ccccc4oc3=O)c2)cccc1-c1nc2ncccc2o1 was read as PINK1 modulator inconclusive, TRPML1 inh -11, TRPV1 potentiator -2, Sfp PPTase inh 13%, Menin-MLL FL inh -1.2, TRPML1 agonist 0.2 and ClpP mod 22µM*.
`Cc1ccc2nc(CSc3nnc(Nc4ccccc4C)s3)cc(=O)n2c1` gave PINK1 modulator -0.6%, TRPML1 inh 8, TRPV1 potentiator -1, Sfp PPTase inh 10%, Menin-MLL FL inh 3.3, TRPML1 agonist 1.5 and ClpP mod -10%.
Cc1ccc(S(=O)(=O)N(C)c2ccc(C(=O)N(CC(C)C)C3CCS(=O)(=O)C3)cc2)cc1 (stereo not drawn) was read as PINK1 modulator 0.5%, TRPML1 inh 11, TRPV1 potentiator inconclusive, TRPML1 agonist -0.9 and ClpP mod -4.0%.
Nn1cc(-c2ccccc2)nc1SCC(=O)N1CCN(S(=O)(=O)c2ccccc2)CC1 was read as PINK1 modulator -3.9%, TRPML1 inh -1, TRPV1 potentiator 4, Sfp PPTase inh -16%, Menin-MLL FL inh -1.6, TRPML1 agonist -0.8 and ClpP mod -1.3%.
CCOC(=O)[C@H]1[C@H]2COc3ccc(Br)cc3[C@@H]2N2C(=O)c3c(C)cc(C)cc3NC(=O)[C@@]12C was read as PINK1 modulator 2.3%, TRPML1 inh 2, TRPML1 agonist 0.7 and ClpP mod -1.2%.
`COC(=O)C1=C(C)Nc2ccc(C)cc2S1` gave PINK1 modulator -1.3%, TRPML1 inh -23, TRPV1 potentiator 4, Sfp PPTase inh inconclusive, Menin-MLL FL inh -0.3, TRPML1 agonist 0.5 and ClpP mod 0.5%.
Screening Cc1nn(C)c(C)c1NC(=O)CSc1nc(C2CC2)nc2c1cnn2-c1ccccc1 returned PINK1 modulator 11%, TRPML1 inh -12, TRPV1 potentiator -6, Sfp PPTase inh -7%, Menin-MLL FL inh 0.5, TRPML1 agonist 1.0 and ClpP mod -0.8%.
For CCCn1c(N)c(C(=O)CSc2nnc(-c3ccco3)n2Cc2ccccc2)c(=O)[nH]c1=O the results were PINK1 modulator -2.4%, TRPML1 inh 16, TRPV1 potentiator 2, Sfp PPTase inh -25%, Menin-MLL FL inh 3.3, TRPML1 agonist 0.8 and ClpP mod 0.5%.
`Cc1nc2sc(C(c3ccco3)N3CCN(C(c4ccccc4)c4ccccc4)CC3)c(O)n2n1` (stereo not drawn) gave PINK1 modulator 7.1%, TRPML1 inh -4, TRPV1 potentiator -3, Sfp PPTase inh 7.9µM*, Menin-MLL FL inh inconclusive, TRPML1 agonist 1.5 and ClpP mod -0.5%.
Cc1ccc(C)c(NC(=O)CN(C)C(=O)c2ccc3c(=O)n4c(nc3c2)CCC4)c1 was read as PINK1 modulator -0.1%, TRPML1 inh -3, TRPV1 potentiator -14, TRPML1 agonist 3.5 and ClpP mod -0.6%.
For O=C(Nc1ccc2c(c1)OCCO2)c1ccc2nccnc2c1 the results were PINK1 modulator -0.9%[38.3 µM], TRPML1 inh 5, TRPV1 potentiator -16, Sfp PPTase inh 5%, Menin-MLL FL inh -1.4, TRPML1 agonist -0.5 and ClpP mod 1.1%.
Screening CCOC(=O)c1c(/N=C/C2C(=O)CCCC2=O)sc2c1CCCC2 returned PINK1 modulator 8.0%, TRPML1 inh 6, TRPV1 potentiator 11, Sfp PPTase inh -7%, Menin-MLL FL inh 1.8 and TRPML1 agonist 0.8.
Cc1ccc(C)n1-c1ccc(NC(=O)c2ccccc2)cc1 was read as PINK1 modulator -0.2%, TRPML1 inh 3, TRPV1 potentiator 2, Sfp PPTase inh 6%, Menin-MLL FL inh 12, TRPML1 agonist -1.3 and ClpP mod -0.4%.
CC(OC(=O)Cn1[nH]c(=O)c2ccccc2c1=O)C(=O)Nc1cccc(Cl)c1 (stereo not drawn) was read as PINK1 modulator -2.3%, TRPML1 inh -14, TRPV1 potentiator 4, TRPML1 agonist -0.1 and ClpP mod -6.5%.
`N=C(N)c1ccc(O)cc1` gave PINK1 modulator 1.0%, TRPML1 inh 3, TRPV1 potentiator 17, Sfp PPTase inh 8%, Menin-MLL FL inh -2.5 and TRPML1 agonist 1.8.
`Cc1cccc(NCC(=O)N/N=C\c2cccc(Oc3ccccc3)c2)c1` gave PINK1 modulator 2.4%, TRPML1 inh -26, TRPV1 potentiator 5, Sfp PPTase inh 2%, Menin-MLL FL inh 5.1, TRPML1 agonist 4.8 and ClpP mod -2.9%.
For CC(Oc1ccc(Cl)cc1Cl)c1ccnc(N)n1 (stereo not drawn) the results were PINK1 modulator -0.5%, TRPML1 inh 8, TRPV1 potentiator 14, Sfp PPTase inh 3%, Menin-MLL FL inh 0.2 and TRPML1 agonist 1.8.
